Screening data: PubChem BioAssay, Broad Institute
Env fusion inh – inhibitors of HIV-1 Env-driven cell-cell fusion, primary screen, HeLa-JRFL effector, CEM21 target cells, luciferase | 1.1% of 360,000 active | inhibition, % at 12.3 µM;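 active = mean replicate inhibition score of at least 50 and every replicate individually at or above 50; inconclusive = only one of the two criteria met; inactive = mean below 50 and not all replicates reaching 50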;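 also: 0% = plate neutral controls and 100% = maraviroc near 300 nM; one replicate is shown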
* marks the source's active call; other numbers are inactive results; ? = inconclusive; [ ] = another dose, or the depositor's remark. Not all compounds are listed (hit frequency here may not be typical).

SMILES	Env fusion inh
C[C@H](CO)N1C[C@H](C)[C@H](CN(C)Cc2ccncc2)Oc2ccc(NC(=O)CCN3CCOCC3)cc2C1=O	4[16.7 µM]
CC(C)NC(=O)N(C)C[C@@H]1OCCCC[C@H](C)Oc2ccc(NC(=O)c3ccccc3)cc2C(=O)N([C@H](C)CO)C[C@@H]1C	14[16.7 µM]
CN(C)C(=O)c1cccc(-c2ccc3n(c2=O)C[C@@H]2[C@@H](CO)[C@H](C(=O)NCC(F)(F)F)[C@H]3N2C)c1	-7[16.7 µM]
COCCNC(=O)C[C@@H]1CC[C@H]2[C@@H](COC[C@H](O)CN2C(=O)c2cc(Cl)cc(Cl)c2)O1	4[16.7 µM]
CN(C)C(=O)C[C@@H]1C[C@H]2c3cc(NC(=O)CC4CC4)ccc3O[C@H]2[C@@H](CO)O1	-9[16.7 µM]
CO[C@@H]1CN(C)C(=O)c2cc(NC(=O)c3cccc(F)c3)ccc2OC[C@@H](C)N(C)C[C@H]1C	?
COc1ccc(Cc2c(C3CCCCC3)nc3ccc(C)cn23)c(C)c1	23
CO[C@@H]1CN(C)C(=O)c2ccc(NC(=O)Cc3ccccc3)cc2OC[C@@H](C)N(C(=O)c2ccccc2F)C[C@H]1C	-29[16.7 µM]
O=C1NC(=O)C2(CCCc3ccc(N(CCO)CCO)cc32)N1 (configuration not stated)	2
CO[C@@H]1CN(C)C(=O)c2cc(NC(=O)c3ccccc3F)ccc2OC[C@@H](C)N(C(C)=O)C[C@H]1C	5[16.7 µM]

6 compounds drawn at random from those above:
SMILES	Env fusion inh
CN(C)C(=O)c1cccc(-c2ccc3n(c2=O)C[C@@H]2[C@@H](CO)[C@H](C(=O)NCC(F)(F)F)[C@H]3N2C)c1	-7[16.7 µM]
C[C@H](CO)N1C[C@H](C)[C@H](CN(C)Cc2ccncc2)Oc2ccc(NC(=O)CCN3CCOCC3)cc2C1=O	4[16.7 µM]
CO[C@@H]1CN(C)C(=O)c2cc(NC(=O)c3cccc(F)c3)ccc2OC[C@@H](C)N(C)C[C@H]1C	?
CO[C@@H]1CN(C)C(=O)c2cc(NC(=O)c3ccccc3F)ccc2OC[C@@H](C)N(C(C)=O)C[C@H]1C	5[16.7 µM]
COCCNC(=O)C[C@@H]1CC[C@H]2[C@@H](COC[C@H](O)CN2C(=O)c2cc(Cl)cc(Cl)c2)O1	4[16.7 µM]
COc1ccc(Cc2c(C3CCCCC3)nc3ccc(C)cn23)c(C)c1	23

Remaining list, next part.
SMILES	Env fusion inh
O=C(N[C@@H]1C=C[C@@H](CC(=O)N2CCN(c3ccccc3)CC2)O[C@@H]1CO)c1ccncc1	7[16.7 µM]
O=C(C[C@H]1CC[C@H](NC(=O)CC2CC2)[C@H](CO)O1)NCc1ccc(Cl)cc1	0[16.7 µM]
O=C(C[C@H]1CC[C@H]2[C@@H](COC[C@@H](O)CN2C(=O)c2ccc3c(c2)OCO3)O1)NC1CCCC1	-10[16.7 µM]
O=C(C(=O)N1CCC(CNC(=O)c2sc3ccccc3c2Cl)CC1)c1cccs1	-16
O=C(C[C@@H]1CC[C@H]2[C@@H](COC[C@H](O)CN2C(=O)c2ccc(F)cc2)O1)N1CCCCC1	-6[16.7 µM]
C[C@H](CO)N1C[C@H](C)[C@@H](CN(C)S(=O)(=O)c2ccccc2)Oc2ccc(NS(C)(=O)=O)cc2C1=O	7[16.7 µM]
C[C@@H]1CCCCO[C@@H](CN(C)Cc2ccncc2)[C@@H](C)CN([C@@H](C)CO)C(=O)c2cc(NS(C)(=O)=O)ccc2O1	10[16.7 µM]
CO[C@H]1CC[C@H]2CCN(C)C(=O)C[C@@H](c3ccccc3)CN(C)C(=O)c3cccc(C#N)c3OC[C@@H]1O2	12[16.7 µM]
COc1ccc2c3c([nH]c2c1)[C@H](CO)N(C(=O)c1cccnc1)CC31CCN(Cc2ccccc2)CC1	-16[16.7 µM]
C[C@H]1C(C(=O)N(C)C2CCCCC2)=Cc2c(n(-c3ccc(F)cc3)c(=O)n2CCCOc2ccccc2)C=C1c1ccccc1	-21
CO[C@@H]1CN(C)C(=O)c2ccc(NC(=O)C3CC3)cc2OC[C@@H](C)N(Cc2cc(F)ccc2F)C[C@H]1C	18[16.7 µM]
CO[C@@H]1CN(C)C(=O)c2ccc(NC(=O)c3ccccc3F)cc2OC[C@H](C)N(C)C[C@H]1C	5[16.7 µM]
C[C@H](NC(=O)C[C@H]1C[C@@H]2c3cc(NC(=O)C4CCOCC4)ccc3O[C@@H]2[C@H](CO)O1)c1ccccc1	-2[16.7 µM]
C[C@@H]1CN([C@@H](C)CO)C(=O)c2cc(NC(=O)Cn3cnnn3)ccc2O[C@H]1CN(C)Cc1ccc(C(F)(F)F)cc1	12[16.7 µM]
CCc1nnc(NC(=O)c2oc3ccc(Br)cc3c2C)s1	-67
CCCCOc1ccc(C(=O)NC2CCCCN(CCC)C2=O)cc1 (configuration not stated)	17
O=C(C[C@@H]1CC[C@H]2[C@@H](COC[C@H](O)CN2Cc2cccc(F)c2)O1)NCc1ccncc1	8[16.7 µM]
O=C(C(=O)N1CCC(CNC(=O)C2COc3ccccc3O2)CC1)c1cccs1 (configuration not stated)	-8
CCCN1[C@H](C(=O)N[C@@H](C)c2ccccc2)[C@@H](CO)[C@@H]2Cn3c(ccc(-c4cccc(F)c4)c3=O)[C@@H]21	64*[16.7 µM]
CO[C@H]1CC[C@@H]2CCN(C)C(=O)C[C@@H](c3ccccc3)CN(C)C(=O)c3cc(C#N)ccc3OC[C@H]1O2	10[16.7 µM]
C#CCN([C@@H](C)C(=O)OCC)S(=O)(=O)c1ccc(Br)cc1F	6
O=C(C[C@@H]1CC[C@H]2[C@@H](COC[C@@H](O)CN2CCc2ccccc2)O1)NCCCN1CCOCC1	19[16.7 µM]
C[C@@H]1CN([C@@H](C)CO)C(=O)c2cc(NC(=O)CCC(F)(F)F)ccc2O[C@@H](C)CCCCO[C@H]1CN(C)C	7[16.7 µM]
CO[C@@H]1CN(C)C(=O)c2cc(C#N)ccc2OC[C@H]2O[C@@H](CC[C@H]2OC)CCN(C)C(=O)[C@H]1C	-2[16.7 µM]
O=C(Nc1ccc(F)cc1)C(c1ccncc1)N1CCN(CC(=O)N2CCCC2)CC1 (configuration not stated)	-9
CN(C(=O)[C@@H](Cc1ccccc1)NC(=O)[C@H]1O[C@@H](n2ccc(=O)[nH]c2=O)[C@H](O)[C@@H]1O)C1CCCCC1	23
C[C@H]1CN([C@@H](C)CO)S(=O)(=O)c2ccc(C#Cc3ccccn3)cc2O[C@@H]1CN(C)C	-6[16.7 µM]
CC(C)NC(=O)Nc1ccc2c(c1)C(=O)N([C@H](C)CO)C[C@@H](C)[C@H](CN(C)S(C)(=O)=O)O2	-4[16.7 µM]
C[C@@H]1CN([C@H](C)CO)C(=O)Cc2cc(NS(C)(=O)=O)ccc2O[C@@H]1CN(C)Cc1ccc(Cl)c(Cl)c1	4[16.7 µM]
O=C(C[C@H]1CC[C@@H]2[C@H](COC[C@H](O)CN2C(=O)c2cccnc2)O1)NC1Cc2ccccc2C1	-8[16.7 µM]
CC(C)(C)c1ccc(C#C[C@@H]2C=C[C@@H](O)[C@@H](COC(=O)NCc3ccccc3)O2)cc1	-6
C[C@H]1CCCCO[C@@H](CN(C)C(=O)c2ccncc2)[C@@H](C)CN([C@@H](C)CO)C(=O)c2cc(NC(=O)c3ccncc3)ccc2O1	-2[16.7 µM]
C/C=C/c1cnc2c(c1)C(=O)N([C@H](C)CO)C[C@@H](C)[C@H](CN(C)C(=O)C1CCC1)O2	-13[16.7 µM]
C[C@@H]1CN(c2ccc(N3CCNC[C@H]3C)cc2C#N)C[C@H](C)O1	-7
COc1ccc(CNC(=O)C[C@H]2C[C@@H]3c4cc(NC(=O)C5CCC5)ccc4O[C@@H]3[C@H](CO)O2)cc1	1[16.7 µM]
CCCNC(=O)c1cc2c(c(-c3cccc(-c4ccc(F)cc4)c3)n1)[C@@H](CCO)N([S@](=O)C(C)(C)C)C2	6[16.7 µM]
COCCNc1nc(Oc2cccc(NC(C)=O)c2)c2sccc2n1	-6
Cc1cccc(NC(=O)c2nc[nH]c2C(=O)N(C)CCO)c1	-102
CN(c1cccnc1)c1ccc(NC(=O)Cc2c[nH]c3ccccc23)cc1Br	-17
CCn1ncc2c(=O)c(C(=O)c3ccccc3)c[nH]c21	-3

Ordered by value in Env fusion inh (largest number first): three of the compounds above
SMILES	Env fusion inh
CCn1ncc2c(=O)c(C(=O)c3ccccc3)c[nH]c21	-3
COCCNc1nc(Oc2cccc(NC(C)=O)c2)c2sccc2n1	-6
CN(c1cccnc1)c1ccc(NC(=O)Cc2c[nH]c3ccccc23)cc1Br	-17

Next section:
SMILES	Env fusion inh
COC(=O)C1=C(C)N(Cc2cccc(C(F)(F)F)c2)C(=NCc2ccc(C(F)(F)F)cc2)NC1c1cccc(F)c1 (configuration not stated)	18
COc1ccccc1-c1cccc(-c2nc(C(=O)N3CCN(C)CC3)cc3c2[C@@H](CCO)N([S@](=O)C(C)(C)C)C3)c1	0[16.7 µM]
CCC(=O)N1C[C@@H](C)[C@H](OC)CN(C)C(=O)c2ccc(NC(=O)C3CCOCC3)cc2OC[C@@H]1C	-2[16.7 µM]
C[C@@H]1CCCCO[C@H](CN(C)C)[C@H](C)CN([C@H](C)CO)C(=O)c2cc(NC(=O)CCC(F)(F)F)ccc2O1	-6[16.7 µM]
CO[C@@H]1CN(C)C(=O)c2ccc(NC(=O)Nc3cccc(F)c3)cc2OC[C@@H](C)N(C(C)=O)C[C@H]1C	-1[16.7 µM]
C[C@H]1CN([C@@H](C)CO)C(=O)Cc2cc(NC(=O)C3CC3)ccc2O[C@@H]1CN(C)C	-27[16.7 µM]
Cc1ccc(CN2CCC=CS2(=O)=O)cc1	1
CCC(=O)Nc1ccc2c(c1)OC[C@@H](C)N(CCc1ccccc1)C[C@@H](C)[C@@H](OC)CN(C)C2=O	-17[16.7 µM]
CC(C)NC(=O)N(C)C[C@@H]1Oc2ccc(N(C)C)cc2CC(=O)N([C@H](C)CO)C[C@H]1C	-4[16.7 µM]
CS(=O)(=O)Nc1ccc2c(c1)[C@@H]1C[C@H](CC(=O)NCc3ccccn3)O[C@@H](CO)[C@@H]1O2	2[16.7 µM]

Looked up above:
CO[C@@H]1CN(C)C(=O)c2cc(C#N)ccc2OC[C@H]2O[C@@H](CC[C@H]2OC)CCN(C)C(=O)[C@H]1C | Env fusion inh: -2[16.7 µM]
CS(=O)(=O)Nc1ccc2c(c1)[C@@H]1C[C@H](CC(=O)NCc3ccccn3)O[C@@H](CO)[C@@H]1O2 | Env fusion inh: 2[16.7 µM]
O=C(C[C@@H]1CC[C@H]2[C@@H](COC[C@H](O)CN2C(=O)c2ccc(F)cc2)O1)N1CCCCC1 | Env fusion inh: -6[16.7 µM]
C[C@@H]1CCCCO[C@@H](CN(C)Cc2ccncc2)[C@@H](C)CN([C@@H](C)CO)C(=O)c2cc(NS(C)(=O)=O)ccc2O1 | Env fusion inh: 10[16.7 µM]

Remaining list, next part.
SMILES	Env fusion inh
CCCN(C)C[C@@H]1Oc2ncc(-c3ccccc3)cc2C(=O)N([C@H](C)CO)C[C@H]1C	-1[16.7 µM]
C[C@H](CO)N1C[C@H](C)[C@@H](CN(C)Cc2ccccc2C(F)(F)F)OCc2cnnn2CCCC1=O	12[16.7 µM]
O=C(N[C@H](C(=O)N1CCC[C@H]1C(=O)NCc1ccccc1)C1CCCCC1)c1ccccc1	-30
CCOC(=O)C1=Nc2cccc3c(O)ccc1c23	-10
CO[C@@H]1CN(C)C(=O)c2cc(NS(=O)(=O)c3cn(C)cn3)ccc2OC[C@@H](C)N(CCC(F)(F)F)C[C@@H]1C	-28[16.7 µM]
C[C@H]1CN([C@@H](C)CO)C(=O)c2c(c3ccccc3n2C)-c2ccccc2CO[C@H]1CN(C)Cc1cccnc1	47[16.7 µM]
CO[C@H](CN(C)Cc1cc(F)ccc1F)[C@@H](C)CN([C@@H](C)CO)S(=O)(=O)c1ccc(F)cc1	10[16.7 µM]
CCCNC(=O)N1C[C@H](O)COC[C@H]2O[C@@H](CC(=O)N3CCC(Cc4ccccc4)CC3)CC[C@@H]21	12[16.7 µM]
O=C(C[C@H]1CC[C@H]2[C@@H](COC[C@H](O)CN2C(=O)Nc2ccc(F)cc2)O1)NCCCN1CCOCC1	-8[16.7 µM]
COc1ccc(CN(C)C[C@H]2Oc3ccc(NC(=O)c4ccncc4)cc3CC(=O)N([C@@H](C)CO)C[C@H]2C)cc1	-1[16.7 µM]
Cc1ccccc1S(=O)(=O)NCC[C@@H]1CC[C@@H](NS(=O)(=O)c2ccccc2C)[C@H](CO)O1	-17[16.7 µM]
CO[C@@H]1CN(C)C(=O)c2ccc(NC(=O)c3cnccn3)cc2OC[C@@H](C)N(CCc2ccccc2)C[C@H]1C	7[16.7 µM]
C[C@@H]1CN([C@H](C)CO)C(=O)Cc2cc(NC(=O)CCCN(C)C)ccc2O[C@@H]1CN(C)S(=O)(=O)c1ccc(F)cc1	0[16.7 µM]
CCCCCCC12Cc3cc(OC)c(OC)cc3C(O1)c1c(cc(C)oc1=O)O2 (configuration not stated)	0
C[C@@H]1CN([C@H](C)CO)C(=O)c2cccc(NC(=O)c3cnccn3)c2O[C@@H]1CN(C)S(=O)(=O)c1ccc(F)cc1	-16[16.7 µM]
COc1ccc(NC(=O)OC[C@@H]2CSCCS(=O)(=O)N2)cc1	-2
O=C(C[C@@H]1C[C@@H]2c3cc(NC(=O)c4ccc5c(c4)OCO5)ccc3O[C@@H]2[C@@H](CO)O1)NCc1cc(F)ccc1F	0[16.7 µM]
CCN=C1NC(c2cccc(Cl)c2)C(C(=O)OC)=C(C)N1Cc1ccc(C(F)(F)F)cc1 (configuration not stated)	22
Cc1ccc(S(=O)(=O)N[C@@H]2CC[C@@H](CCn3cc(-c4cccnc4)nn3)O[C@@H]2CO)cc1	26[16.7 µM]
O=C1O[C@@H](Cc2ccccc2)[C@H]2[C@@H]3C=CCCC=C3CN2C12CCCC2	-13[16.7 µM]
Cc1noc(C)c1NC(=O)Nc1ccc2c(c1)C(=O)N(C)[C@H]1CC[C@H](CC(=O)NCc3ccc(Cl)cc3)O[C@H]1CO2	27[16.7 µM]
CC=Cc1ccc2n(c1=O)C[C@@H]1[C@@H](CO)[C@H](C(=O)N3CCC(Cc4ccccc4)CC3)N(C)[C@H]21 (mixture of isomers)	25[16.7 µM]
CN1C[C@@H](O)COC[C@@H]2O[C@@H](CC(=O)NC3CCC3)CC[C@H]21	0[16.7 µM]
